# Bioassay records: PubChem BioAssay, National Center for Advancing Translational Sciences (NCATS)
# Rango release inh: qHTS Assay for Inhibitors of RanGTP induced Rango (Ran-regulated importin-beta cargo) - Importin beta complex dissociation; 0.071% of 340,000 active; AID 540253, 2011; Potency, µM (titrated, usually from 46.1 µM), for inactives: at the highest dose activity change, negative = inhibition; Biochemical FRET Rango-importin beta, RanGTP-induced dissociation; active means falling FRET ratio curve, often poorly fitted, with flat reads before Ran was added; inconclusive means other falling curves, or compound fluorescence or quenching; inactive means flat or rising ratio curve;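 note: potency is the fitted concentration of half-maximal effect; % of control where 0% means no effect; nearly all actives have a fitted effect of over 45% in size; -100% = wells without RanGTP and RCC1; the record marks most hits as doubtful in a second field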
#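 FRET read at 45 min, room temperature: inhibitors block the CFP/YFP signal rise when RanGTP (0.6 uM Ran, 2 mM GTP, 0.2 uM RCC1) frees Rango (0.1 uM) from importin beta (0.25 uM). Pre-read after 5 min compound exposure flags interference.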
# Rango-impB inh: qHTS Assay for Inhibitors of Rango (Ran-regulated importin-beta cargo) - Importin beta complex formation; Importin subunit beta-1 (Homo sapiens), Q14974; Rango CFP/YFP FRET sensor + importin beta, 45 min; Potency, µM (top dose mostly 92.2 µM), for the others: at the highest dose inhibition of complex formation; 0.031% of 340,000 active; active = rising FRET ratio curve, often small or poorly fitted; inconclusive = mostly compound fluorescence or quenching in the first reads; inactive = flat curves in all reads;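 note: potency is the fitted concentration of half-maximal effect; 0% = DMSO wells and 100% = buffer wells lacking importin beta; nearly all actives have a fitted effect of over 15% in size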
# Target sequence (Q14974 whole entry, looked up): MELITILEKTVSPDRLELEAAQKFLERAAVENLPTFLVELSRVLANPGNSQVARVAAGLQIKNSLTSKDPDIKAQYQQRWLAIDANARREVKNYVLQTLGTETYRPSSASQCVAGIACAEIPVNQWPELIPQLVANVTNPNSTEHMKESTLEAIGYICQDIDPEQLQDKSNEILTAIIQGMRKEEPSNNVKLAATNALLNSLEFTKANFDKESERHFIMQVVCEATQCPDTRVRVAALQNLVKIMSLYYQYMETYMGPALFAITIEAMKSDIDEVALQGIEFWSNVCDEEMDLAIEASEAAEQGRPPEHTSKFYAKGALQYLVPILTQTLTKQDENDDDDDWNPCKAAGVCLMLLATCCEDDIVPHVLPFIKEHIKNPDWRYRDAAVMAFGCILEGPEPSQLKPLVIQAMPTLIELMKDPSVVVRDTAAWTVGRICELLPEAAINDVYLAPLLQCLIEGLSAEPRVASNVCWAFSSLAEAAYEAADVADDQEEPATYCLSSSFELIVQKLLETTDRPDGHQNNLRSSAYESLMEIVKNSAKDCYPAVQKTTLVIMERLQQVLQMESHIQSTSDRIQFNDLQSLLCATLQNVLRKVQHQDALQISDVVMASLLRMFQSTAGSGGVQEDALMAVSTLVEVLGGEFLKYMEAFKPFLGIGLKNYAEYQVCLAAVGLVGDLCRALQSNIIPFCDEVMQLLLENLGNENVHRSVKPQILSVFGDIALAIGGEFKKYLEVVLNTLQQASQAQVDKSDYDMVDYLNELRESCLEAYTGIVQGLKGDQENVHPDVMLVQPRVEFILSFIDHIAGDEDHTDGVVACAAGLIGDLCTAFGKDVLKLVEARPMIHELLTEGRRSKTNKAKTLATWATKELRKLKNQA
#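 Inhibition scored from the CFP 486 nm/YFP 530 nm FRET ratio 45 min after adding 0.125 microM importin beta to 50 nM Rango biosensor preincubated 5 min with compound (room temperature, PBS with DTT, Tween-20, BSA). No-importin wells as positive control.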
# miR-21 FLuc: qHTS Assay for Modulators of miRNAs and/orActivators of miR-21; Potency, µM (doses to about 38.3 µM), for the others: at the top dose reporter change, positive = more light; HeLa miR-21 FLuc reporter, luciferase, 48 h; AID 2288, 2010; 340,000 tested, under 10 active; active = well fitted rising curve with a large enough effect; inconclusive = small, poorly fitted or top-dose-only effect; inactive = no such curve, though single readings can be large or run the other way;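 note: % of control where 0% means no effect; miR-21 action dims this reporter so a rising signal means less miR-21 action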
#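 Luminescence from a firefly luciferase reporter carrying a miR-21 binding site downstream, stably expressed under a CMV promoter in HeLa cells that make miR-21 endogenously, reports miRNA modulation after 48 h compound exposure up to approximately 40uM final.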
# GLA inh pH 4.5: qHTS Assay for Inhibitors of Human alpha-Galactosidase at pH 4.5 | Alpha-galactosidase A (Homo sapiens), P06280 | purified enzyme, 4-MU-alpha-Gal fluorescence, pH 4.5 | activity change, negative = inhibition, % at 105 µM | 230,000 tested, under 10 active; inconclusive = small, poorly fitted or top-dose-only inhibition, or a rising curve; inactive = flat fitted curve, though single readings scatter; no compound was filed as active;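 note: 0% = full activity with enzyme and -100% = basal without enzyme; dose as in the result columns while the protocol names 77 µM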
# * = called active by the depositor; ? = inconclusive; · = not tested or not shown; & = joins results of further samples.
molecule,Rango release inh,Rango-impB inh,miR-21 FLuc,GLA inh pH 4.5
COc1ccccc1OCc1ccc(C(=O)NC(C)c2ccccc2)o1 (stereo not given),?,-2.3%,1%,·
CN1CCN(CCC(=O)N/N=C/c2cc3c(cc2[N+](=O)[O-])OCO3)CC1,-1%,-0.7%,0%,·
CCCc1nnc(NC(=O)C(CC)OC(=O)c2cc(C)nc3ccccc23)s1 (stereo not given),5%,-0.9%,0%,-18
CCN(CC)CCNC(=O)/C(=C\c1cccn1C)NC(=O)c1cccs1,10%,-3.1%,-6%,-5
COc1ccc(NC(=S)NCc2ccc(F)cc2)c(OC)c1,0%,-0.6%,-3%,·
O=[N+]([O-])c1ccc2[nH]c(O)c(N=NC(=S)NCC3CCCO3)c2c1 (stereo not given),-1%,4.6%,-3%,-14
O=C(O)CC(SCC(=O)Nc1ccc(S(=O)(=O)N2CCCC2)cc1)C(=O)O (stereo not given),-2%,1.0%,0%,-5
O=C(Cc1ccccc1F)Nc1nc(-c2ccc(F)c(F)c2)cs1,51%,1.9%,5%,·
Cc1ccc(-n2c(C)nnc2SCC(=O)NC2CCCC2)cc1,1%,1.5%,0%,·
N#C/C(=C\c1ccc(OC(=O)c2ccc(Cl)s2)cc1)c1nc2ccccc2[nH]1,-27%,-5.4%,-48%,1
O=C(CN(Cc1ccco1)C(=O)CNS(=O)(=O)c1ccc(F)cc1)NCCc1ccccc1,-12%,2.0%,-1%,-7
Cc1ccccc1NC(=O)CCNS(=O)(=O)c1ccc2[nH]c(=O)oc2c1,1%,-0.1%,1%,·
COc1ccc(CN2CCNC(=O)C2CC(=O)NC2CCCCCC2)c(F)c1 (stereo not given),-13%,?,-9%,·
CCCOc1ccc(/C(O)=C2/C(=O)C(=O)N(CCOC)C2c2cccnc2)cc1 (stereo not given),·,·,1%,5
Cc1ccc2c(c1)C1CN(C)CCC1N2C(=S)Nc1ccc(OC(F)F)cc1 (stereo not given),-6%,?,1%,-2
Cc1nc2ccc(C(=O)OCC(=O)N(C)c3ccccc3)cc2nc1C,-11%,2.7%,·,·
COc1ccc(-c2nc(-c3ccccc3)ncc2S(C)(=O)=O)cc1,11%,-0.5%,-3%,3
COc1ccc(C(=O)N/C(=C\c2ccc3c(c2)OCO3)C(=O)Nc2cccc(C(=O)O)c2)cc1,-17%,?,-2%,5
Cc1nc(NC(=O)CN2CCOCC2)sc1C(=O)N(C)C,-1%,-3.9%,-6%,·
COC(=O)c1nc[nH]c1C(=O)OC,5%,-1.1%,-9%,-2
CC1=CC2=NC(=O)/C(=C\c3cccn3CCOc3cccc(C)c3)C(=N)N2O1,6%,?,-4%,?
COc1ccc(-c2nc(CS(=O)(=O)CC(=O)NCCCN3CCOCC3)c(C)o2)cc1,14%,-2.2%,-3%,·
COc1cc2[nH]c(=O)n(CCCCCC(=O)NCCCN3CCC(C)CC3)c(=O)c2cc1OC,-5%,-0.2%,1%,5
O=C(Nc1cccc(NC(=S)NC(=O)c2cccs2)c1)c1ccccc1,-6%,-2.8%,-4%,-1
COc1ccc(NC(=O)NN2CCN(C)CC2)cc1,8%,4.6%,-5%,·
CCCC(=O)N1CCN(c2ccc(NC(=O)c3ccc4c(c3)OCCO4)cc2)CC1,3%,2.6%,1%,·
COC(=O)c1cc(S(=O)(=O)n2nc(C)c(Br)c2C)c(Cl)cc1Cl,-6%,1.8%,2%,-1
C=CCN(Cc1cc(OC)ccc1OC)S(=O)(=O)N(C)C,0%,0.1%,-17%,-9
Cc1ccccc1OCC(=O)OCC(=O)c1ccc[nH]1,-5%,-2.5%,·,·
CCN(CC(=O)NCc1cccs1)C(=O)c1cccc(S(=O)(=O)Nc2ccccc2OC)c1,-6%,-2.7%,-2%,·
Cc1cc(Nc2ccccc2C(=O)O)n(-c2cccc(Cl)c2)n1,-8%,3.7%,-19%,-15
Cc1ccc(C(=O)NCCCN2CCOCC2)cc1,1%,-6.2%,·,·
COc1ccc(-c2ccc(CCC(=O)O)n2-c2ccccc2O)cc1,-22%,?,-10%&7%,0
CCN(CC)C(=O)c1cnn(-c2ccccc2)c1NC(=O)c1cccs1,3%,0.6%,-2%,-9
Cc1cc(C)c(NC(=O)CCN2CCN(Cc3ccccc3)CC2)c(C)c1,1%,-2.1%,·,·
CC1(CC(=O)N/N=C/c2cc(Br)c(O)cc2O)OCCO1,-16%,3.6%,1%,8
C=CCNC(=O)C1(c2ccccc2)CC1(Cl)Cl (stereo not given),14%,-1.0%,-6%,4
CCOc1ccc(NC(=O)Nc2cccnc2)cc1,-6%,-2.8%,-31%,6
O=C(c1ccc2oc(CCc3ccccc3)nc2c1)N1CC[C@H](O)C1,22%,3.2%,-50%,·
CC(=O)c1ccc(NCC(=O)N2CCN(c3ccccc3)CC2)cc1,-8%,-0.1%,5%,-2
Cc1nn(-c2ccccc2)c(C)c1CN(C)C(=O)c1ccc(S(=O)(=O)NCc2ccco2)cc1,7%,-0.2%,·,·
O=C(CN1C(=O)CCS(=O)(=O)c2ccccc21)Nc1cccc(F)c1,-9%,-1.9%,-11%,2
Cc1c(NC(=O)c2ccc(=O)oc2)c(=O)n(-c2ccccc2)n1C,-28%,?,-3%,-8
O=C(CCC(=O)Nc1ccccc1)N/N=C/C=C/c1ccccc1,-17%,-3.9%,-11%,2
CSc1n[nH]c(NC(=O)c2c(-c3c(Cl)cccc3Cl)noc2C)n1,30%,-3.8%,-1%,3
Cn1nc(C(=O)OCC(=O)c2ccc[nH]2)c2ccccc2c1=O,-1%,-2.1%,-2%,1
O=Cc1ccc(OCCOc2ccc([N+](=O)[O-])cc2)cc1,2%,-1.9%,-10%,·
N#Cc1cc2c(nc1SCc1ccccc1)CCCCC2,15%,-2.0%,-14%,1
CCOC(=O)N1CCN(S(=O)(=O)c2ccc(NC(C)=O)cc2)CC1,-7%,1.7%,2%,·
Cc1cccc(Oc2nccc(C(F)(F)F)c2C(=O)Nc2ccc(F)cc2F)c1,-13%,3.0%,-2%,-2
COCCNC(=O)Cc1cn(C)c2ccccc12,12%,0.6%,-1%,0
CCCC(c1nnnn1Cc1ccc(OC)cc1)N1CCN(c2ccccc2OC)CC1 (stereo not given),-9%,0.5%,4%,-4
CCN(CC)c1ccc(NC(=O)CN2CCN(c3ccccn3)CC2)cc1,15%,-0.1%,0%,·
O=C(O)CCNC(=O)c1ccc(Br)o1,-3%,0.6%,1%,7
CCN(Cc1ccncc1)C(=O)CCc1nnc(CCc2ccc(OC)cc2)o1,-12%,-2.3%,-3%,7
COc1ccc(CC(=O)N2CCCC(CNC(=O)c3ccccc3Cl)C2)cc1 (stereo not given),3%,-0.4%,-11%,6
COc1cc(/C=N/n2c(C)nc3ccccc3c2=O)ccc1O,7%,-2.6%,-10%,·
COc1ccc2[nH]c(=O)c(CN(C)C(=O)c3ccncc3)cc2c1,0%,6.1%,-8%,-3
Cc1nn(C)c(Cl)c1C(N)=O,-4%,2.4%,-1%,-2
CCN(CC(=O)NCc1ccccn1)S(=O)(=O)c1cc(Cl)ccc1Cl,-19%,-1.7%,·,·

# 6 compounds from above, showing only Rango release inh, miR-21 FLuc and GLA inh pH 4.5:
molecule,Rango release inh,miR-21 FLuc,GLA inh pH 4.5
Cc1ccccc1NC(=O)CCNS(=O)(=O)c1ccc2[nH]c(=O)oc2c1,1%,1%,·
COc1ccc2[nH]c(=O)c(CN(C)C(=O)c3ccncc3)cc2c1,0%,-8%,-3
Cn1nc(C(=O)OCC(=O)c2ccc[nH]2)c2ccccc2c1=O,-1%,-2%,1
COc1ccc(NC(=O)NN2CCN(C)CC2)cc1,8%,-5%,·
CCCc1nnc(NC(=O)C(CC)OC(=O)c2cc(C)nc3ccccc23)s1 (stereo not given),5%,0%,-18
Cc1nn(C)c(Cl)c1C(N)=O,-4%,-1%,-2

# Back to the main list with the 4 entries that preceded the break.
molecule,Rango release inh,Rango-impB inh,miR-21 FLuc,GLA inh pH 4.5
COc1cc(/C=N/n2c(C)nc3ccccc3c2=O)ccc1O,7%,-2.6%,-10%,·
COc1ccc2[nH]c(=O)c(CN(C)C(=O)c3ccncc3)cc2c1,0%,6.1%,-8%,-3
Cc1nn(C)c(Cl)c1C(N)=O,-4%,2.4%,-1%,-2
CCN(CC(=O)NCc1ccccn1)S(=O)(=O)c1cc(Cl)ccc1Cl,-19%,-1.7%,·,·
O=C(CNC(=O)c1ccco1)NCC(=O)OCc1ccc(F)cc1,3%,-8.4%,0%,·
Cc1ccccc1N(CC(=O)NC1CCCC1)C(=O)CS(=O)CC(=O)Nc1ccc2c(c1)OCO2 (stereo not given),0%,-3.8%,-3%,4
O=C(CCN1CCN(C(c2ccccc2)c2ccccc2)CC1)N/N=C/c1ccc(O)cc1O,-7%,5.8%,20%,11
CCCn1c(SCC(=O)N2CCN(c3ccc(OC)cc3)CC2)nc2c1c(=O)n(C)c(=O)n2C,-1%,1.8%,10%,1
CC(=O)c1ccc(OC(=O)C2c3ccccc3Oc3ccccc32)cc1,-12%,2.4%,-4%,2
COc1ccc(C2CC(c3cccs3)=NN2C(=O)CN2CCCCC2)cc1 (stereo not given),0%,-2.5%,-25%,-2
O=C(O)c1ccccc1-c1ccc(/C=C2\SC(=O)N(c3ccccc3)C2=O)o1,?,?,-30%,·
COc1ccc(/C(N)=N/OC(=O)N2CCOCC2)cc1,-7%,3.0%,0%,4
Cc1ccc(-n2c(-c3ccccc3)cc(=O)nc2C)cc1,41%,-2.5%,-4%,-1
CCOc1ccccc1/C=N/NC(=O)c1c(C)nc2ccc(Br)cn12,0%,-2.8%,-1%,·
C[C@H](NC(=O)c1ccccc1Cl)C(=O)OCC(=O)N1CCN(c2ccccc2)CC1,2%,0.4%,·,·
COc1ccc(-n2c(=O)[nH]cc(C(=O)Nc3ccc(NC(C)=O)cc3)c2=O)cc1,4%,3.0%,5%,13
CN(C)/C=N/c1c(C#N)nnn1Cc1ccccc1,16%,-0.5%,-10%,-1
Cc1ccc(Cn2cccc(NS(C)(=O)=O)c2=O)cc1,-16%,-9.4%,-5%,·
CC(=O)Cc1nsc(NC(=O)c2cc(-c3ccc(Cl)c(Cl)c3)oc2C)n1,3%,0.0%,-2%,-8
Cc1ccc(S(=O)(=O)N2CCOCC2)cc1NC(=O)CSc1nnc2cc(C)c3ccccc3n12,-14%,-1.0%,-6%,-4
CCn1cc([N+](=O)[O-])c(C(=O)N2CCCCCC2)n1,-22%,4.7%,1%,·
COc1ccc(NC(=O)COC(=O)CCSc2ccccc2)cc1,-17%,2.4%,·,·
COc1cccc(NC(=O)COC(=O)CCCC2=NS(=O)(=O)c3ccccc3N2)c1,-13%,2.3%,1%,·
Cc1ccccc1Nc1nnc(SCC(=O)NC(=O)Nc2ccc3c(c2)OCCO3)s1,·,·,-62%,9
Cc1ccc2nc(SCC(=O)Nc3ccc(C)c(Cl)c3)nc(=O)n2c1,3%,-0.1%,·,·
COc1ccc(CN(C)CC2CCCN(CCc3ccc(F)cc3)C2)cc1OC (stereo not given),-4%,3.6%,-9%,·
Cc1[nH]c2ccccc2c1CCNC(=O)CCC(=O)c1ccccc1,0%,-1.8%,-3%,0
Cc1nc2ccc3[nH]snc3c2n1,1%,-3.3%,9%,6
O=C(OCC1CCCN2CCCCC12)c1ccc2c(c1)OCO2 (stereo not given),-4%,-0.6%,0%,·

# Only part of the results is shown. The share of hits here may be higher or lower than overall.
